NPYLR7 ag: activates Aedes aegypti NPYLR7 receptor; HEK293T NPYLR7/Galpha15, GCaMP6s calcium fluorescence; 270,000 tested, 0.15% active; activation, % at 10 µM; AID 1259423; in the data active = activation above about 40%;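 also: 0% = vehicle and 100% = reference agonist at the receptor; some compounds past the cut are filed as inactive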
NPYLR7 ag max-min: further read-out of NPYLR7 ag, marked with its call; activation, %; measured here: Max-Min RFU normalised activation; some inactives read as strong as hits;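 span of the calcium signal over five minutes; 0% = vehicle and 100% = native peptide agonist; compound fluorescence can raise it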
Numbers without * were called inactive. The list is partial (hit frequency here may not be typical).

Results for COc1cccc2cc(-c3cc(=O)oc4ccc(OC(=O)N5CCOCC5)cc34)oc12 ?
NPYLR7 ag: -1; NPYLR7 ag max-min: -5

Results for O=c1oc2ccccc2c(O)c1C=Nc1ccc(Cl)cn1 ?
NPYLR7 ag: 5; NPYLR7 ag max-min: 3

How did O=c1c2ccccc2[nH]c(=S)n1CCN1CCC(=C(c2ccc(F)cc2)c2ccc(F)cc2)CC1 do in these assays?
NPYLR7 ag: -2; NPYLR7 ag max-min: -33

How did COc1ccc(F)cc1C(=O)Nc1ccc(N2CCCC2)cc1 do in these assays?
NPYLR7 ag: 1; NPYLR7 ag max-min: -1

Results for CCOC(=O)c1c(SCC(=O)O)nc(=O)[nH]c1C ?
NPYLR7 ag: 6; NPYLR7 ag max-min: 11

How did Cc1ccc(CN(C)CC(=O)NNC(=O)c2ccccc2Br)c(C)c1 do in these assays?
NPYLR7 ag: 2; NPYLR7 ag max-min: 1

What do the screens show for `CCCNC(=O)COc1coc(CN2CCN(c3cccc(Cl)c3)CC2)cc1=O`?
NPYLR7 ag: 3; NPYLR7 ag max-min: 4

What do the screens show for `O=C(CN1CCn2cccc2C1c1ccccc1)NC1CCCC1` (centres undefined)?
NPYLR7 ag: 5; NPYLR7 ag max-min: 1

What do the screens show for `CCOC(=O)CSc1nnc(CCn2ccc(=O)[nH]c2=O)o1`?
NPYLR7 ag: 10; NPYLR7 ag max-min: 5

What do the screens show for `COc1cc(=O)n(-c2ccccc2)nc1C(=O)N1CCCCC1`?
NPYLR7 ag: 4; NPYLR7 ag max-min: 1

How did CCCNC(=O)C1CN(C(=O)c2sc(C)nc2C)c2ccccc2O1 (centres undefined) do in these assays?
NPYLR7 ag: 10; NPYLR7 ag max-min: 7

What do the screens show for `CN1CCN(C(=O)C(Cc2ccccc2)NC(=O)C2CC(c3ccc(F)cc3)=NO2)CC1` (centres undefined)?
NPYLR7 ag: 14; NPYLR7 ag max-min: 28

Results for O=C(NC1CCSC1=O)c1cc(-c2ccccc2)nc2ccccc12 (centres undefined) ?
NPYLR7 ag: -4; NPYLR7 ag max-min: -9

Results for Cc1nn(CC(=O)O)c2c1C(c1sc3ccccc3c1C)CC(=O)N2 (centres undefined) ?
NPYLR7 ag: 1; NPYLR7 ag max-min: 5

How did COC(=O)C1CCCCN1C(=O)CN1C(=O)c2ccccc2C1=O (centres undefined) do in these assays?
NPYLR7 ag: 3; NPYLR7 ag max-min: 3

Results for CCCc1nccn1S(=O)(=O)c1cc(F)ccc1OC ?
NPYLR7 ag: -7; NPYLR7 ag max-min: -9

Results for COC(=O)CCSC(C)C(=O)Nc1ccccc1 (centres undefined) ?
NPYLR7 ag: 10; NPYLR7 ag max-min: 8

Results for CCCCOC(=O)C1=C(C)NC2=C(C(=O)CCC2)C1c1ccc(O)c(OC)c1 (centres undefined) ?
NPYLR7 ag: -6; NPYLR7 ag max-min: -8

What do the screens show for `O=C(NNC(=O)c1cccn(Cc2ccc(F)cc2)c1=O)c1ccc(Br)o1`?
NPYLR7 ag: -8; NPYLR7 ag max-min: -14

Results for CCOc1ncccc1C(=O)N1CCOC(COc2cccc(C(F)(F)F)c2)C1 (centres undefined) ?
NPYLR7 ag: 3; NPYLR7 ag max-min: 0

What do the screens show for `Cc1nc(-n2nc(-c3ccco3)cc2NC(=O)/C=C\c2ccc3c(c2)OCO3)[nH]c(=O)c1C`?
NPYLR7 ag: 3; NPYLR7 ag max-min: 1

How did O=S(=O)(Nc1ccc(S(=O)(=O)Nc2nccs2)cc1)c1ccc2c(c1)OCCO2 do in these assays?
NPYLR7 ag: 0; NPYLR7 ag max-min: -2

What do the screens show for `CCOC(=O)N1CCN(C(=O)CSc2ncnc3c2nnn3-c2ccc(C)cc2)CC1`?
NPYLR7 ag: 3; NPYLR7 ag max-min: 11

What do the screens show for `CCOC(=O)CSc1nc(N)c(C(=O)Nc2nccs2)s1`?
NPYLR7 ag: 1; NPYLR7 ag max-min: 2

Results for CCOC(=O)C1CCCN(C(=O)c2cccc(CSc3nc(C)cc(N4CCCCC4C)n3)c2)C1 (centres undefined) ?
NPYLR7 ag: 3; NPYLR7 ag max-min: 6

How did Cc1ccc(-n2ncc3c(=O)n(NC(=O)c4ccccc4C(F)(F)F)cnc32)cc1C do in these assays?
NPYLR7 ag: 4; NPYLR7 ag max-min: 3

How did COc1ccc(-c2c(NC(=O)CC(C)C)oc3c(C)cccc3c2=O)cc1OC do in these assays?
NPYLR7 ag: 4; NPYLR7 ag max-min: 1

What do the screens show for `CC(Cl)C(=O)Nc1cccc(-c2cccc(-c3ccc4c(c3)OCCO4)n2)c1` (centres undefined)?
NPYLR7 ag: 4; NPYLR7 ag max-min: 2

Results for CCCOC(=O)C1=C(C)N(CC)C(=O)NC1c1ccc(Br)cc1 (centres undefined) ?
NPYLR7 ag: -3; NPYLR7 ag max-min: -6

How did O=C(CC1c2ccccc2CCc2ccccc21)NCCN1CCOCC1 do in these assays?
NPYLR7 ag: 4; NPYLR7 ag max-min: 1

How did CCN(C(=O)C(C)S(=O)(=O)C(C)C)c1cc(C)cc(C)c1 (centres undefined) do in these assays?
NPYLR7 ag: 0; NPYLR7 ag max-min: -2

What do the screens show for `COCCN1CC(O)CN(C(=O)c2ccc(OC)cc2)CC1=O` (centres undefined)?
NPYLR7 ag: 0; NPYLR7 ag max-min: 2

What do the screens show for `N#CCCCN1CCN(C(=O)c2ccc(-c3cc(-c4cccc(C(F)(F)F)c4)n[nH]3)cc2)CC1`?
NPYLR7 ag: -3; NPYLR7 ag max-min: 4

Results for CC(=O)Nc1ccccc1-c1nnc2c3ccccc3c(C)nn12 ?
NPYLR7 ag: 2; NPYLR7 ag max-min: 0

Results for CC1=CC(C)(C)N2C(=O)C(C(C#N)C#N)(C3NC(=S)NC3=O)c3cc(C)cc1c32 (centres undefined) ?
NPYLR7 ag: 3; NPYLR7 ag max-min: 40

What do the screens show for `O=C(Nc1cnc2n1CCCC2)c1ccc(-n2cnnc2)cc1`?
NPYLR7 ag: 15; NPYLR7 ag max-min: -4

What do the screens show for `N=C1SCCN1CC(O)c1ccccc1` (centres undefined)?
NPYLR7 ag: 2; NPYLR7 ag max-min: 3

How did Cc1cc(C(C)(C)C)cc(C)c1S(=O)(=O)Nc1ccccc1S(=O)(=O)N1CCOCC1 do in these assays?
NPYLR7 ag: 13; NPYLR7 ag max-min: 10

How did CCc1ccc(OCC(O)CN2CCCCC2)cc1 (centres undefined) do in these assays?
NPYLR7 ag: 7; NPYLR7 ag max-min: 19

Results for OC[C@H]1O[C@@H](n2cnc3c(NC4CCCC4)nc(Cl)nc32)[C@@H](O)C1O (some centres undefined) ?
NPYLR7 ag: 13; NPYLR7 ag max-min: 2

How did CCCCNC1=NCCCS1 do in these assays?
NPYLR7 ag: 9; NPYLR7 ag max-min: 6

How did CC(=O)Nc1ccc(S(=O)(=O)Oc2cccc(CN(Cc3ccco3)C(=O)NC(C)(C)C)c2)cc1 do in these assays?
NPYLR7 ag: 32; NPYLR7 ag max-min: 22

What do the screens show for `CN(c1ccccc1)N1C(=O)c2ccccc2NC12CCN(C(=O)c1ccc3nonc3c1)CC2`?
NPYLR7 ag: -1; NPYLR7 ag max-min: 4

How did CNC(=O)CN(c1cccc(OC)c1)S(=O)(=O)c1cccc(F)c1 do in these assays?
NPYLR7 ag: 4; NPYLR7 ag max-min: 0

What do the screens show for `COc1ccc(NC(=O)CC(NCCCN(C)C)C(=O)O)cc1` (centres undefined)?
NPYLR7 ag: -3; NPYLR7 ag max-min: -3

Results for CN1CCc2cc(C(CNC(=O)NC(C)(C)C)N3CCCC3)ccc21 (centres undefined) ?
NPYLR7 ag: -6; NPYLR7 ag max-min: -8

What do the screens show for `Cc1ccc(C(=O)Nc2cnc3n2CCCC3)cc1N1CCNC1=O`?
NPYLR7 ag: -5; NPYLR7 ag max-min: -11

How did O=C(CCc1cccnc1)N[C@@H]1c2ccccc2C2(CCNCC2)[C@H]1O do in these assays?
NPYLR7 ag: 6; NPYLR7 ag max-min: 1

How did CC1=C(C(=O)OCC2CCCO2)C(c2cccc([N+](=O)[O-])c2)NC(=O)N1 (centres undefined) do in these assays?
NPYLR7 ag: -2; NPYLR7 ag max-min: -7

How did CC(C)CN1CC(C(=O)NCc2nncn2C2CCCCC2)CC1=O (centres undefined) do in these assays?
NPYLR7 ag: 2; NPYLR7 ag max-min: -2

How did Cc1cnc2c(c1SCc1cccc(C(F)(F)F)c1)c(=O)n(C)c(=O)n2C do in these assays?
NPYLR7 ag: 7; NPYLR7 ag max-min: 12

How did Cc1noc(C)c1C(=O)OC(C)C(=O)NC(C)C1CC2CCC1C2 (centres undefined) do in these assays?
NPYLR7 ag: 1; NPYLR7 ag max-min: 34

How did COCCNC(=O)c1c(NC(=O)c2ccc(C)cc2)sc2c1CCCC2 do in these assays?
NPYLR7 ag: 1; NPYLR7 ag max-min: -2

What do the screens show for `CN(C)S(=O)(=O)c1ccc(S(=O)(=O)N2CCN(CCC#N)CC2)cc1`?
NPYLR7 ag: -3; NPYLR7 ag max-min: -5

What do the screens show for `CC1CC(C)CN(c2ccc(-n3cnnn3)cc2[N+](=O)[O-])C1` (centres undefined)?
NPYLR7 ag: 10; NPYLR7 ag max-min: 5

What do the screens show for `Cc1cccc(C)c1OCC(=O)NNC(=O)CN(C)S(=O)(=O)c1cccs1`?
NPYLR7 ag: 2; NPYLR7 ag max-min: 2

Results for CCC(CNC(=O)C1CCCN1)Oc1ccccc1F (centres undefined) ?
NPYLR7 ag: 13; NPYLR7 ag max-min: -1

How did Cc1oc2nc(SC(C)C(=O)NC(C)C)nc(NC(=O)c3ccccc3)c2c1C (centres undefined) do in these assays?
NPYLR7 ag: 7; NPYLR7 ag max-min: 2

How did CCOC(=O)N1CCN(/C=C(\C#N)c2nc3ccccc3s2)CC1 do in these assays?
NPYLR7 ag: -9; NPYLR7 ag max-min: -12

How did Cc1cccn2c(=O)nc(SC/C=C/c3ccccc3)nc12 do in these assays?
NPYLR7 ag: 3; NPYLR7 ag max-min: 3

Results for O=C(NC1CC1)c1coc(CN(CCc2c[nH]c3ccccc23)Cc2cccc(Cl)c2)n1 ?
NPYLR7 ag: 18; NPYLR7 ag max-min: 7

What do the screens show for `C[C@@H]1NC(=O)N[C@@H]1CCCCCC(=O)N1Cc2cccc3cccc(c23)C1`?
NPYLR7 ag: -2; NPYLR7 ag max-min: -5

How did CSC1CCCC1NC(=O)N1CCCN(CC(F)(F)F)CC1 (centres undefined) do in these assays?
NPYLR7 ag: 11; NPYLR7 ag max-min: 8

What do the screens show for `O=C(c1cc(-c2ccccc2F)nn1-c1ccc(F)cc1)N1CCN(C/C=C/c2ccccc2)CC1`?
NPYLR7 ag: -2; NPYLR7 ag max-min: 10

How did Cc1cc(C)n(-c2nc(C)c(C)c(=O)n2CC(=O)N2CCN(c3ccccc3)CC2)n1 do in these assays?
NPYLR7 ag: -4; NPYLR7 ag max-min: 2

Results for CCOC(=O)C(=O)N1CCC(CCc2ccccc2)CC1 ?
NPYLR7 ag: 1; NPYLR7 ag max-min: -2

How did O=C1CC2(CCN(C(=O)NCC3CCCC(CNC(=O)N4CCC5(CC4)CC(=O)c4cc(F)ccc4O5)C3)CC2)Oc2ccc(F)cc21 (centres undefined) do in these assays?
NPYLR7 ag: 0; NPYLR7 ag max-min: -5

Results for Cc1[nH]nc2ncc(NC(=O)c3cc4c(s3)CCCC4)cc12 ?
NPYLR7 ag: 1; NPYLR7 ag max-min: 0

Results for Cc1ccc(F)cc1Nc1nc(-c2cc3cc(Cl)ccc3oc2=O)cs1 ?
NPYLR7 ag: 5; NPYLR7 ag max-min: 16

What do the screens show for `CC1CN(C(=O)NCc2ccc(Br)cc2F)CCO1` (centres undefined)?
NPYLR7 ag: 9; NPYLR7 ag max-min: 6

What do the screens show for `Cc1ccc(Cc2nc(N3CCCN(C(=O)COc4ccccc4)CC3)c3c(-c4ccc5ccccc5c4)noc3n2)cc1`?
NPYLR7 ag: 21; NPYLR7 ag max-min: 27

How did Cc1cccc(C(=O)NC(C(=O)N2CCCC2)C2CCN(C(=O)c3cccs3)CC2)c1 (centres undefined) do in these assays?
NPYLR7 ag: 0; NPYLR7 ag max-min: 8

Nothing new here: an excerpt of the list.
Results for O=C(NC1CC1)c1coc(CN(CCc2c[nH]c3ccccc23)Cc2cccc(Cl)c2)n1 ?
NPYLR7 ag: 18; NPYLR7 ag max-min: 7

What do the screens show for `C[C@@H]1NC(=O)N[C@@H]1CCCCCC(=O)N1Cc2cccc3cccc(c23)C1`?
NPYLR7 ag: -2; NPYLR7 ag max-min: -5

How did CSC1CCCC1NC(=O)N1CCCN(CC(F)(F)F)CC1 (centres undefined) do in these assays?
NPYLR7 ag: 11; NPYLR7 ag max-min: 8

What do the screens show for `O=C(c1cc(-c2ccccc2F)nn1-c1ccc(F)cc1)N1CCN(C/C=C/c2ccccc2)CC1`?
NPYLR7 ag: -2; NPYLR7 ag max-min: 10

How did Cc1cc(C)n(-c2nc(C)c(C)c(=O)n2CC(=O)N2CCN(c3ccccc3)CC2)n1 do in these assays?
NPYLR7 ag: -4; NPYLR7 ag max-min: 2

Results for CCOC(=O)C(=O)N1CCC(CCc2ccccc2)CC1 ?
NPYLR7 ag: 1; NPYLR7 ag max-min: -2

How did O=C1CC2(CCN(C(=O)NCC3CCCC(CNC(=O)N4CCC5(CC4)CC(=O)c4cc(F)ccc4O5)C3)CC2)Oc2ccc(F)cc21 (centres undefined) do in these assays?
NPYLR7 ag: 0; NPYLR7 ag max-min: -5

Results for Cc1[nH]nc2ncc(NC(=O)c3cc4c(s3)CCCC4)cc12 ?
NPYLR7 ag: 1; NPYLR7 ag max-min: 0

Results for Cc1ccc(F)cc1Nc1nc(-c2cc3cc(Cl)ccc3oc2=O)cs1 ?
NPYLR7 ag: 5; NPYLR7 ag max-min: 16

What do the screens show for `CC1CN(C(=O)NCc2ccc(Br)cc2F)CCO1` (centres undefined)?
NPYLR7 ag: 9; NPYLR7 ag max-min: 6

What do the screens show for `Cc1ccc(Cc2nc(N3CCCN(C(=O)COc4ccccc4)CC3)c3c(-c4ccc5ccccc5c4)noc3n2)cc1`?
NPYLR7 ag: 21; NPYLR7 ag max-min: 27

How did Cc1cccc(C(=O)NC(C(=O)N2CCCC2)C2CCN(C(=O)c3cccs3)CC2)c1 (centres undefined) do in these assays?
NPYLR7 ag: 0; NPYLR7 ag max-min: 8
